Screening data: PubChem, Fisher Drug Discovery Resource Center
NPYLR7 ag: agonists of mosquito NPYLR7 receptor, primary screen, cell-based, Aedes aegypti, calcium fluorescence, mosquito biting behavior; Aedes aegypti neuropeptide Y-like receptor 7 (NPYLR7); AID 1259423, 2018; HEK293T NPYLR7/Galpha15, GCaMP6s calcium fluorescence; activation, % at 10 µM; actives 0.15% (n = 270,000); in the data active means activation above about 40%;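 further: 0% = vehicle and 100% = reference agonist at the receptor; some compounds past the cut are filed as inactive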
NPYLR7 ag max-min: recorded beside NPYLR7 ag, whose call it bears; activation, %; measured here: Max-Min RFU normalised activation; some inactives read as strong as hits;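 span of the calcium signal over five minutes; 0% = vehicle and 100% = native peptide agonist; compound fluorescence can raise it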
An asterisk follows results filed as active; & = joins results of further samples. The list is partial. The share of hits here may be higher or lower than overall.

Compound | NPYLR7 ag | NPYLR7 ag max-min
Cc1ccc(NC(=O)c2cc(-c3ccc(Cl)cc3)n(-c3ccc4c(c3)OCO4)c2C)cc1 | -3 | 3
c1ccc(N2CCCCC2)c(NC2=NCCC2)c1 | 6 | 1
O=C(O)CC1C(=O)NCCN1CC1CCCCC1 (stereo unspecified) | 10 | 5
CN(C)c1noc(-c2ccco2)n1 | 18 | 9
Nc1ccc([N+](=O)[O-])cc1NS(=O)(=O)c1ccc2ccccc2c1 | 1 | 0
CN(Cc1n[nH]c2c1CCCCC2)C(=O)c1ccc2nc(C3CCCCC3)oc2c1 | 10 | -1
CCc1nc2n(n1)C(=O)C(C(c1cccc(Br)c1)N1CCC3(CC1)OCCO3)S2 (stereo unspecified) | -2 | -8
O=C(O)CN1C(=O)CSC1=S | 17 | 30
O=C(NCc1ccc2c(c1)OCO2)c1csc(CSc2nnc(-c3ccncc3)n2-c2ccccc2F)n1 | 7 | 11
CCC1CN(C(=O)CSc2nnc(-c3ccc(F)cc3)n2C)CCO1 (stereo unspecified) | 2 | 11
COc1cccc2cc(-c3nnc(-c4cccc(Br)c4)o3)c(=O)oc12 | -8 | -10
CCCCN1C(=O)C2(c3ccccc31)c1c(cc(C)n(C)c1=O)OC(=N)C2C#N (stereo unspecified) | 0 | -4
CN(C)c1nc2cc(C(=O)O)sc2n1-c1ccc(Br)cc1 | -1 | -2
CN(C)c1ccc(NC(=O)C(c2ccccc2)c2ccccc2)cc1C(=O)NCCc1ccccc1 | -1 | 2
CC(=O)Nc1ccc(C(=O)N2CCC(c3c[nH]c4ccc(C)cc34)CC2)cc1 | 12 | 15
O=C(CC1Sc2ccccc2NC1=O)OCc1cc(=O)oc2ccc3ccccc3c12 (stereo unspecified) | 10 | 9
Cn1cnnc1Sc1nc([N+](=O)[O-])nn1C | 10 | 6
CCCc1nc(N2CCCN(C(=O)c3ccc(Cl)c(Cl)c3)CC2)c2c(-c3cccc(C(F)(F)F)c3)noc2n1 | 16 | 2
CC(NC(=O)COC(=O)C=Cc1ccc(I)o1)C1CC2CCC1C2 (stereo unspecified) | 1 | 0
Cc1cnc(NC(=O)CC2CCCC2)s1 | 1 | 7
Fc1ccccc1Cc1noc(CN2CCCCC2c2cccnc2)n1 (stereo unspecified) | 4 | 2
COCCN(CC(=O)N1CC(=O)N(c2ccc(Cl)cc2)C1)S(=O)(=O)c1c(C)cc(C)cc1C | 1 | 13
C[C@H](NCCc1ccc(O)cc1)[C@H](O)c1ccc(O)cc1 | -1 | -3
CC1CCN(C(=O)C(C2CCCC2)N2CCN(C(=O)CCc3ccccc3)CC2)CC1 (stereo unspecified) | 2 | 6
CCOCCN1CCN(C(=O)CCc2ccc(-c3ccc(C)cc3C)n2-c2ccc(CC#N)cc2)CC1 | -3 | -6
COCCCNC(=O)c1cccc(CSc2nc(Cl)cc(N3CCN(Cc4ccccc4)CC3)n2)c1 | -4 | 6
CC(=O)Nc1cnn(-c2ccc(C(=O)N3CCCC(c4ccccc4)C3)cc2)c1 (stereo unspecified) | 24 | 15
O=C1NC(=S)SC1=Cc1ccc(OC(F)F)cc1OC(F)F | -2 | -3
c1cnc2c(-c3cc(NC4CCCC4)nc4[nH]ccc34)cnn2c1 | -1 | -8
Cc1[nH]nc2c1C(C1CCCCC1)C(C#N)C(=N)O2 (stereo unspecified) | -2 | -3
Cc1ccc(C)c(-n2nc(-c3ccco3)cc2C(=O)N2CCN(C/C=C/c3ccccc3)CC2)c1 | -13 | -3
Cc1ccc(-n2nnnc2SCC(=O)NC(C)C(C)C)c(C)c1 (stereo unspecified) | -3 | -10
O=C(O)CN1C(=O)/C(=C\c2cc(Cl)cc(Br)c2O)SC1=S | 8 | 6
COC[C@H](N)C(=O)N1CCC(Cc2nnc(SC)n2C)CC1 | 0 | 0
O=C1NC(=O)C(CC(=O)N2CCN(Cc3cc(=O)c(OCc4ccc(C(F)(F)F)cc4)co3)CC2)N1 (stereo unspecified) | 4 | 7
COc1ccc(Oc2c(C)oc3c4c(ccc3c2=O)OCN(C2CC2)C4)cc1 | -8 | -14
N#Cc1ccc(Cl)cc1NC(=O)C(=O)NCC(c1cccc2ccccc12)N1CCOCC1 (stereo unspecified) | -3 | 1
Cc1ccc(N2C(=O)C3C4C=CC(C4)C3C2=O)cc1F (stereo unspecified) | -9 | -14
CCOc1ccc(N=C2SC(C(=O)Nc3ccc(F)cc3)CC(=O)N2C)cc1 (stereo unspecified) | 2 | 0
O=[N+]([O-])c1cc(S(=O)(=O)NCc2ccc3c(c2)OCO3)ccc1Cl | -2 | -5

Full records as entered above:
Record of Cc1ccc(-n2nnnc2SCC(=O)NC(C)C(C)C)c(C)c1 (stereo unspecified) : NPYLR7 ag = -3; NPYLR7 ag max-min = -10
Record of Cc1ccc(N2C(=O)C3C4C=CC(C4)C3C2=O)cc1F (stereo unspecified) : NPYLR7 ag = -9; NPYLR7 ag max-min = -14

(list continues)
Compound | NPYLR7 ag | NPYLR7 ag max-min
CN(C)S(=O)(=O)c1ccc(C(=O)NCCn2ncc3c(N4CCCC4)ncnc32)cc1 | -1 | -2
Cc1nc2ccsc2c(=O)n1-c1ccc(Cl)cc1 | 0 | 3
Cc1sc2nc(C(C)N3CCN(Cc4ccco4)CC3)[nH]c(=O)c2c1C (stereo unspecified) | 10 | 3
CCCCOc1ccc(S(=O)(=O)NCCCN2CCOCC2)c2ccccc12 | 5 | 1
CCOc1ccc(C2c3cccn3CCN2C(=S)NC)cc1 (stereo unspecified) | 3 | -1
CCOc1ccc(N2CCN(C(=O)c3cccc(OC)c3)C(C)C2=O)cc1 (stereo unspecified) | 1 | 13
Cc1ccc(Sc2c(C)nn(C(=O)CNS(=O)(=O)c3ccc(F)cc3)c2C)cc1 | -6 | -6
Cc1cc(C)n2nc(C)c(C#N)c2n1 | 1 | 2
CCc1nc2ccc(C(=O)Nc3cccc(NS(C)(=O)=O)c3)cn2c1N(C)Cc1nccn1C | 8 | 5
COc1ccc(NC(=O)CSc2cn(CC(=O)N3CC(C)OC(C)C3)c3ccccc23)cc1 (stereo unspecified) | -7 | -15

Quoted from the listing for reference:
Compound | NPYLR7 ag | NPYLR7 ag max-min
CCOc1ccc(C2c3cccn3CCN2C(=S)NC)cc1 (stereo unspecified) | 3 | -1
CCOc1ccc(N2CCN(C(=O)c3cccc(OC)c3)C(C)C2=O)cc1 (stereo unspecified) | 1 | 13
Cc1ccc(Sc2c(C)nn(C(=O)CNS(=O)(=O)c3ccc(F)cc3)c2C)cc1 | -6 | -6
Cc1cc(C)n2nc(C)c(C#N)c2n1 | 1 | 2
CCc1nc2ccc(C(=O)Nc3cccc(NS(C)(=O)=O)c3)cn2c1N(C)Cc1nccn1C | 8 | 5

Following part
Compound | NPYLR7 ag | NPYLR7 ag max-min
COc1ccccc1CNC(=O)C1(C)CCN1C(=O)Cc1ccc(-c2ccccc2)cc1 (stereo unspecified) | 2 | 0
Cc1ccc2oc(-c3ccc(NC(=O)c4ccccc4C)c(C)c3)nc2c1 | 19 | 3
Cc1sc2nc(C(C)OC(=O)C=Cc3ccco3)[nH]c(=O)c2c1C (stereo unspecified) | 7 | 15
Fc1ccc(NC(=S)NN=C2CCc3ccccc32)c(F)c1 | 2 | 0
O=C(Cc1cccs1)NCCn1ncc2c(N3CCCCCC3)ncnc21 | -1 | -1
O=C(Cc1cccs1)Nn1cnc2c(cnn2-c2ccccc2)c1=O | 13 | 8
Clc1nc(-c2ccccc2)c2cc(Br)ccc2n1 | 6 | 10
CC1(C)C2CCC1(C)C(NC(=O)N1CCCC(CNS(C)(=O)=O)C1)C2 (stereo unspecified) | 1 | 2
CC(=O)c1c(C)[nH]c(C(=O)OCC(=O)N(CC(C)C)C2CCS(=O)(=O)C2)c1C (stereo unspecified) | -1 | -4
C=CCN(CC(=O)Nc1ccc(NC(C)=O)cc1)Cc1ccc(Cl)s1 | -7 | 1
CCCN(C)C(=O)NCc1cc(OC)nc2ccccc12 | 2 | 0
CNc1nc2cnc(Nc3cccc(C)c3)cc2n1Cc1ccc(OC)c(OC)c1 | 7 | -3
Cc1ccsc1C(=O)N1CCCC(N2CCN(Cc3ccc4c(c3)OCO4)CC2)C1 (stereo unspecified) | -1 | 0
O=c1cc(CSc2nnnn2C2CCCC2)nc2ccc(Br)cn12 | 1 | 9
Cc1ccc(NC(=O)c2cc3c(s2)CCCCC3)c(OCC2CCCO2)c1 (stereo unspecified) | 5 | 3
COc1c(C)cnc(CN2CCC(c3ccccc3C(=O)O)C2)c1C (stereo unspecified) | 0 | 4
CCCCOc1ccc(C(=O)Nn2cnc3c(cnn3C(C)(C)C)c2=O)cc1 | 0 | 1
Oc1ccc(/C=N\Nc2nc(N3CCOCC3)nc(N3CCOCC3)n2)c(O)c1 | -17 | -27
CCOc1ccc(-n2c(CCc3c(C)n[nH]c3C)n[nH]c2=O)cc1 | 13 | 8
Cc1noc(C)c1CNCc1c(C)nn(CCO)c1C | 11 | 8
CC(=O)C1=C(c2ccc(Cl)cc2)N(C(C)=O)n2c(nnc2C2CCCCC2)S1 | 6 | 6
O=C1CCC([N+](=O)[O-])C(c2ccc(Cl)cc2Cl)N1 (stereo unspecified) | -14 | -20
Cc1ccc(C2CC(C(F)(F)F)n3ncc(C(=O)Nc4ccc(C#N)cc4)c3N2)cc1 (stereo unspecified) | -2 | -6
CCOc1cc(S(=O)(=O)Nc2ccc(F)cc2)c(OCC)cc1C | 5 | 11
COCCOc1nc(-c2ccc(Cl)c(Cl)c2)n(-c2ccc(NC(=O)c3cccc(F)c3)cc2)n1 | -1 | 6
CCCc1cc(C(=O)Nn2cnc3sccc3c2=O)sc1C | 4 | 6
CC1=C(/C=C/C(C)=C/C=C/C(C)=C\C(=O)O)C(C)(C)CCC1 | -6&3&-5&4 | -13&-5&-9&18
Cc1ccsc1C(=O)N1CCS(=O)C(C)(C)C1 (stereo unspecified) | 2 | 1
CC(C)S(=O)(=O)Cc1cccc(NC(=O)c2ccc[nH]2)c1 | -4 | -7
COc1cc(=O)n(-c2ccccc2C)nc1C(=O)N(Cc1ccccc1)Cc1ccccc1 | -3 | -2
CCCSc1ncc(C2CC(=O)Nc3c2cnn3Cc2cccnc2)cn1 (stereo unspecified) | 3 | 0
CN1CCC2(CC1)CN(C(=O)CN1CCOC1=O)CCCN2C | 6 | 6
CC(O)c1ccc(-c2cccc(CN3CCOCC3)c2)cc1 (stereo unspecified) | 4 | 3
Cc1ccc2[nH]c3c(cc(Nc4ccccc4)c4c(=O)c5ccccc5c(=O)c43)oc2c1 | -2 | -8
CCCOc1ccc(C(=O)N2CCN3CCNC(=O)C3C2)cc1Cl (stereo unspecified) | 1 | -3
O=C(Cc1nc2ccccc2o1)NCCc1nc2c(s1)CCCC2 | 0 | -1
COCCN(CCC(=O)NCc1cccc(C(F)(F)F)c1)c1nc(-c2ccco2)nc2ccccc12 | -3 | -2
Cc1c(O)ccc2c1O/C(=C\N1CCC3(CC1)OCCO3)C2=O | -6 | -13
Cc1ccc(S(=O)(=O)n2ccc(C(=O)Nc3ccncc3)c2)cc1 | 6 | 6
COc1ccc(C(C2Sc3nc(C)nn3C2=O)N2CCCC(C)C2)cc1OC (stereo unspecified) | 7 | 4
O=C1O/C(=C(\c2ccc(Cl)cc2)[N+](=O)[O-])c2ccccc21 | -1 | 4
CCNc1nc(NCC)n2c(SCC(=O)NCC3CCCCC3)nnc2n1 | 4 | 2
CC(C)CC(NC(=O)c1cnnn1-c1ccccc1)c1ncnn1C (stereo unspecified) | 12 | 8
Cc1nc(SCC(=O)N(C)Cc2ccsc2)n[nH]1 | 1 | -3
C=CC(C)(O)CNc1ccc(-n2nc(OCC)nc2-c2ccc3c(c2)OCO3)cc1 (stereo unspecified) | -2 | 3
Cc1nn2c(NC(C)C)cc(C(C)C)nc2c1-c1ccccc1 | 0 | 7
CC=CCn1c(=O)c2c(nc3n2CCCN3c2cccc(C)c2C)n(C)c1=O | 7 | 10
O=C(OCc1cn2cc(Cl)ccc2n1)c1cc(=O)c2cc(Cl)ccc2o1 | -1 | 10
Cc1cccc2nc(-c3cccc(F)c3)c(NC(C)(C)CC(C)(C)C)n12 | -5&-8 | -3&-7
COCc1cc(N(C)CCc2ccc(OC)c(OC)c2)nc(SCc2ccc(C(=O)N3CCCC3)o2)n1 | 1 | 9

New compounds follow:
Compound | NPYLR7 ag | NPYLR7 ag max-min
O=C1/C(=C/c2ccc(-c3ccc([N+](=O)[O-])cc3)o2)C=C(c2ccccc2)N1Cc1ccccc1 | -4 | -7
Cc1nc2c(=O)n(CCc3ccccc3)nc(-c3ccc(F)cc3)c2s1 | 4 | 2
O=c1[nH]c(=O)n(CCC2=CCCCC2)c(O)c1C=C1C=CC=N1 | -10 | -16
C=CCN1CC(c2nc3ccccc3n2CCOc2ccccc2OC)CC1=O (stereo unspecified) | 4 | 9
O=S(=O)(c1ccc(Cl)cc1)N1CCN(C2CCCC2)CC1 | -1 | 1
COC(=O)c1c(C)c(C(=O)C(C)N(C)C(=O)c2ccc([N+](=O)[O-])cc2)c(C)n1C (stereo unspecified) | -1 | 5
O=C(NCCC(F)(F)F)c1csc(N2CCNC2=O)n1 | 6 | 4
C=CCOCC(O)CN(Cc1c(-c2ccccc2)nn(C)c1Oc1ccccc1OC)CC(C)C (stereo unspecified) | 6 | 6
O=C(O)c1coc(CN(Cc2ccco2)Cc2cccs2)n1 | 8 | 18
CCN(CC)S(=O)(=O)c1ccc2c(c1)nc(CCC(=O)NC(C)c1ccccc1)n2C (stereo unspecified) | 1 | 2
CCN(Cc1noc(C)n1)C(=O)c1cn[nH]c1-c1cccc(OC)c1 | 4 | -9
c1cncc(-c2nc(Oc3ccc4ccccc4c3)c3ccccc3n2)c1 | 6 | 6
NC(=O)CN(C(=O)/C=C/c1ccc(Cl)cc1)C1CCCC1 | -3 | -2
O=C1CN(C2CCCCC2)C2CS(=O)(=O)CC2N1c1ccc(Cl)cc1 (stereo unspecified) | 10 | 10
CN(C)C(=O)c1ccc(CN2C(=O)COCc3cc(-c4csc5ccccc45)ccc32)cc1 | 9 | 3
